Mtb growth – M. tuberculosis H37Rv growth inhibitors, H37Rv strain (AID 1626) | M. tuberculosis H37Rv growth inhibition; higher % means a stronger effect | one-dose inhibition, % at 10 µM; IC50 in µM for titrated hits | 220,000 tested, 0.95% active;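 active means confirmed in a dose series; inconclusive means inhibition above 80% but not taken into the dose series; inactive means below 80% or under 30% at every dose of the series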;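 further: bacteria incubated seven days before Alamar blue readout; 0% = bacteria only wells and 100% = bacteria with antibiotic wells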
YopH inh – YopH tyrosine phosphatase inhibitors, primary screen, biochemical, fluorescence Ex485/Em525; YopH tyrosine phosphatase [Yersinia enterocolitica]; 140,000 tested, 0.16% active; inhibition, %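 (about 10 µM by stock and volumes)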;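 active means inhibition of 50% or more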;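 further: controls were vehicle for no effect and minimum signal wells for full effect; inactives centre near -20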
Mtb betalactam – beta-lactam sensitization of Mtb H37Rv, H37Rv. AID 434955, 2010. inhibition, % at 25 µM. 330,000 tested, 0.27% active. M. tuberculosis H37Rv growth with meropenem, percent inhibition; hits of this screen are not shown here;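 active means about 74% or more and at least 40 points above the plate without the antibiotic, then above 30% in a dose series; inconclusive means first-round hits that could not be retested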;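 further: growth measured after seven days incubation then overnight dye step; 0% = bacteria only wells and 100% = bacteria with antibiotic; twin plates without the antibiotic show which effects depend on it; some results filed as inactive read as strong as hits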
RecA splice inh – Mtb RecA intein splicing inhibitors, primary screen, biochemical, fluorescence, HTS. cell-free RecA intein splicing. 290,000 tested, 0.75% active. AID 2221, 2009. inhibition, %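 (about 9 µM by stock and volumes)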. Protein RecA (Mycobacterium tuberculosis (strain ATCC 25618 / H37Rv)), P9WHJ3; in the data active means inhibition above about 30%; inconclusive means no clear call, values can overlap the other calls;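 further: 0% = vehicle wells and 100% = reference inhibitor control wells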
Target sequence (P9WHJ3 whole entry, looked up, canonical isoform): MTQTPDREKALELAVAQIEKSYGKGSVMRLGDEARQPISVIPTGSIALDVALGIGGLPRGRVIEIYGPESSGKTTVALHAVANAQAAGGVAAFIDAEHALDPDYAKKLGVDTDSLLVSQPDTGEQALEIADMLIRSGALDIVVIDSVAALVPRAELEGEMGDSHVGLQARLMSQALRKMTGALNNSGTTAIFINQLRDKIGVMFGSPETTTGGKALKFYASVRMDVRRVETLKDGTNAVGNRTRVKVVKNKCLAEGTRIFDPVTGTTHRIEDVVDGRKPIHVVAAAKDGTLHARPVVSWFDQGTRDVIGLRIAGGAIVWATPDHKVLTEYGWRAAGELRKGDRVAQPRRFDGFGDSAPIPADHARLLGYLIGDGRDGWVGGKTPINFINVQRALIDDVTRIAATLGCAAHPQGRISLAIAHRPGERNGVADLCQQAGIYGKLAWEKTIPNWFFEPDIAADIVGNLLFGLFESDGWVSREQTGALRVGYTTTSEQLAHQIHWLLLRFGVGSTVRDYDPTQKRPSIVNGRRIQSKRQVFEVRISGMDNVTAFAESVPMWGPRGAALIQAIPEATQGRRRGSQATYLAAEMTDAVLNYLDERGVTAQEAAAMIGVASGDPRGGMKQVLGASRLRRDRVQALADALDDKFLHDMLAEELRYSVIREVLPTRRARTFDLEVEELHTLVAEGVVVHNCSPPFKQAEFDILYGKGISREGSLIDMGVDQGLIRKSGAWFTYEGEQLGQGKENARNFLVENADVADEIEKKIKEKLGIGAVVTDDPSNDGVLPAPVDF
Arbovirus anti – antivirals against arbovirus infection, primary screen, cell-based, full library, 10K replicate subset; arbovirus infection cell-based antiviral screen; inhibition, % at 10 µM; 200,000 tested, 0.37% active;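 active means inhibition from about 30%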;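 further: bluetongue infection of BSR cells; cell survival read as ATP light after 72 h; 0% = infected wells without compound and 100% = uninfected wells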
Arbovirus anti repeat – recorded beside Arbovirus anti, whose call it bears; inhibition, %; measured here: 10K subset replicate screen; many hits read low in the repeat;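 first of two repeat runs on a subset; 0% = infected and 100% = uninfected wells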
Starred values were filed as active, the others as inactive; ? = inconclusive; . = not tested or not shown. This is a subset; the hit share may differ from the screen's.

Start of the data: the first three compounds, ahead of the listing:
SMILES	Mtb growth	YopH inh	Mtb betalactam	RecA splice inh	Arbovirus anti	others
Cc1cccn2c(=O)c3cc(C(=O)NCCN4CCOCC4)c(=N)n(Cc4ccc(F)cc4)c3nc12	.	.	3	-427	.
O=C(Nc1ccccc1C(F)(F)F)N1CCCC1c1cccnc1 (centres undefined)	-13%	.	-11	.	.
CC1=Nc2ccc(C)cc2/C1=C/c1c(N)n2c(S(=O)(=O)C(C)C)nsc2nc1=O	11%	.	.	1.9	45*

This part in full, repeating the preview:
SMILES	Mtb growth	YopH inh	Mtb betalactam	RecA splice inh	Arbovirus anti	others
Cc1cccn2c(=O)c3cc(C(=O)NCCN4CCOCC4)c(=N)n(Cc4ccc(F)cc4)c3nc12	.	.	3	-427	.
O=C(Nc1ccccc1C(F)(F)F)N1CCCC1c1cccnc1 (centres undefined)	-13%	.	-11	.	.
CC1=Nc2ccc(C)cc2/C1=C/c1c(N)n2c(S(=O)(=O)C(C)C)nsc2nc1=O	11%	.	.	1.9	45*
Cc1cc(C(=O)COC(=O)CNC(=O)c2ccco2)c(C)n1Cc1ccco1	1%	-17	1	0.1	-1
O=C(N/N=C/c1ccco1)C1CC1	0%	-28	-2	-3.1	-4
O=C(c1cccc(F)c1)N1CCN(c2cccc(Cl)c2)CC1	-6%	-22	-5	5.2	-8
CC(=O)c1c(O)c2ccccc2n(C)c1=O	0%	.	4	-3.1	9
O=C(O)CC1S/C(=N/N=C/c2ccc(-c3ccccc3[N+](=O)[O-])o2)NC1=O (centres undefined)	-4%	16	2	43*	9
CC(=O)c1ccc(S(=O)(=O)Nc2cc3c(cc2C(C)=O)OCO3)cc1	9%	.	0	-0.8	19
CCOc1cc(C)cc2oc(=O)c3c(c12)CCCC3	.	.	0	2.1	.
COc1cccc(C(O)c2nc3ccccc3n2C(C)C)c1OC (centres undefined)	.	.	8	-1.1	.
Cc1[nH]nc(SCC(=O)Nc2ccc(C#N)cc2)c1[N+](=O)[O-]	-5%	-7	2	-3.1	-11
Cc1ccc(S(=O)(=O)N(C)Cc2cc3cc(C)ccc3[nH]c2=O)cc1	.	.	1	-4.3	.
Cc1ccc(-c2nc(-c3ccncc3)no2)cc1Cl	.	.	2	4.7	.
COC(=O)C1=C(C)N(Cc2ccccc2)C(=O)N[C@H]1c1cccs1	11%	.	-2	3.0	.
CCOc1ccc(NC(=O)c2ccccc2C(=O)c2ccccc2)cc1OCC	.	.	7	0.4	.
COc1cccc(C(CNC(=O)C(c2ccccc2)c2ccccc2)N(C)C)c1 (centres undefined)	.	.	-6	1.9	.
Cc1cc(=O)oc2cc(NC(=O)c3cccc(Br)c3)ccc12	.	.	1	-1.8	.
CCOc1ccc(CN2CCN(Cc3c[nH]c4ccccc34)CC2)cc1	.	.	2	0.9	.
COc1ccc2nc(N3CCCCC3)c(/C=C3\SC(=S)NC3=O)cc2c1	-8%	.	3	17	.
Cn1nc(C(=O)NCc2ccccc2)c2ccccc2c1=O	-4%	-58	0	0.9	-8
CCOc1ccc(Nc2nc(Cc3nnc(SCC(=O)NCc4ccco4)n3CC)cs2)cc1	0%	-29	-1	7.4	-12
O=C(Nc1c2n(c(=S)n(-c3ccccc3)c1=O)CCCCC2)c1ccccc1	2%	.	1	-0.7	5
CN1CCC(Oc2ccccc2Sc2ccc(C(F)(F)F)cc2)CC1	40%	4	?	-3.9	-44
Cc1ccc(S(=O)(=O)/N=C(/NC(=S)Nc2cccc(C)c2)c2ccccc2)cc1	.	-20	4	-0.7	1
COc1ccc(-c2cc(-c3ccc(Br)cc3)nc3ncnn23)cc1OC	12%	-5	9	-6.7	72*
CCOc1ccc(N2C(=O)CN(CC(=O)OC)C2=S)cc1	-10%	.	-2	0.1	2
O=C1c2ccccc2CCC1C(O)c1ccccn1 (centres undefined)	-3%	-40	-2	-0.4	2	Arbovirus anti repeat=-2
O=C(CCCCC(=O)NCCCc1ccccc1)NCCCc1ccccc1	.	.	-6	-2.1	.
NC(=O)N/N=C/C=C/c1ccc(F)cc1	-9%	.	-10	.	.
CSc1ccc(CN2CCC(Oc3cccc(C(=O)N4CCCC4)c3)CC2)cc1	.	.	-7	-0.8	.
COCCn1c(SCC(=O)N2CC(=O)Nc3ccccc32)nc2ccccc21	1%	26	-1	0.2	-4
CN1CCN(C(=O)/C=C/c2cccc(Cl)c2)CC1	.	.	-9	-0.8	.
CCCOc1ccc(C(CC(=O)O)NC(=O)c2sc3ccccc3c2Cl)cc1 (centres undefined)	-3%	.	5	2.7	0
Nc1ccc2c(c1)OC1(CCCCC1)O2	3%	.	.	-0.4	-11
CC(C)CC1(C)NC(=O)N(CC(=O)Nc2ccc3c(c2)CCC3)C1=O (centres undefined)	2%	.	5	2.4	6
FC(F)(F)c1ccc(Sc2n[nH]c(C(F)(F)F)n2)nc1	-5%	.	-4	-0.5	.
C/C(=N/NC(=O)c1sc(NS(=O)(=O)c2ccccc2)nc1C)c1ccccc1	-3%	-18	1	0.8	2
CC(NC(=O)OC(C)(C)C)C(=O)Oc1ccc2ccc(=O)oc2c1 (centres undefined)	35%	-44	1	.	11
Cc1cccn2cc(CSc3nnc(Nc4ccc(C(C)C)cc4)s3)nc12	10%	-11	3	9.3	-2
Cc1cccc(NC(=O)C2(c3ccccc3)CC2(Cl)Cl)c1 (centres undefined)	2%	-26	-2	6.8	8
COC(=O)c1sc(=S)n(-c2cc(F)ccc2F)c1N	-3%	-42	-1	-0.1	-1
COc1ccc(-c2noc(Cc3ccc(Cl)cc3)n2)cc1OC	9%	-27	85	18	-30
Cc1ccc(CNC(=O)c2ccc(Cl)cc2[N+](=O)[O-])cc1	2%	-43	14	-2.4	-3
CCOC(=O)c1sc(Nc2ccc(C)cc2C)nc1C	15%	-29	22	1.0	-7
O=C(Nc1nnc(COc2ccc(F)cc2)s1)c1ccco1	-8%	.	-1	-3.6	.
CC1(C)C(=O)C2(CCCCC2)C(=O)OC1c1ccc(O)cc1 (centres undefined)	2%	-19	-3	5.7	7
CC(=O)/C(C#N)=C1\NC(=O)C(Cc2ccc(C)c(Cl)c2)S1 (centres undefined)	-9%	.	-5	2.4	.
Cc1nccn1-c1c([N+](=O)[O-])c(=O)n(C)c2ccccc12	2%	.	5	45*	.
CC(=O)Nc1ccc(S(=O)(=O)Nc2ccc3c(c2)CCC3)cc1	.	.	1	0.4	.
c1ccc2c(N3CCCCC3)nnc(N3CCCCC3)c2c1	-3%	14	.	.	8
COc1ccc(C(=O)NC(=S)N2CCCCC2c2cccnc2)cc1OC (centres undefined)	.	.	-1	1.9	.
COC(=O)c1ccc(Cn2c(CN3CCOCC3)nc3ccccc3c2=O)o1	-8%	-28	2	-2.0	3
Cc1cccc(-n2c(SCC(=O)N3CCCC3)nnc2-c2ccccn2)c1C	.	-19	-3	-6.1	5
Cc1nc(N)nc(N/N=C/c2ccccc2)n1	-3%	.	-9	-3.4	.
Nc1nc(-c2ccc3c(c2)CCO3)cs1	3%	.	-7	1.1	-4
COc1ccccc1-n1cc(-c2ccc([N+](=O)[O-])cc2)[nH]c1=S	0%	.	-4	-0.1	.
COP1(=O)C=C[C@H](N(Cc2ccccc2)S(=O)(=O)c2ccccc2[N+](=O)[O-])[C@@H](C)O1 (some centres undefined)	2%	.	-4	-1.1	.
CCn1cc(C(=O)N2CC(C)CC(C)C2)c(=O)c2cc(S(=O)(=O)N(C)C)ccc21 (centres undefined)	.	.	2	-1.5	-2	Arbovirus anti repeat=1
CCOC(=O)c1sc(NC(=O)CSc2nc(C)cc(C(F)(F)F)n2)c(C#N)c1C	-3%	3	8	1.2	-2

The list goes on:
SMILES	Mtb growth	YopH inh	Mtb betalactam	RecA splice inh	Arbovirus anti	others
COc1ccc(OCc2cc(C(=O)NCC(C)(C)N3CCOCC3)no2)c(Cl)c1	.	.	?	-1.4	.
CC1(C)Cc2c(sc3ncn(N)c(=N)c23)CO1	.	-3	-14	-5.0	5
COCCN(C(=O)c1ccccc1F)c1c(N)n(Cc2ccccc2)c(=O)[nH]c1=O	-4%	.	-2	-0.4	0
Nc1cc(C(F)(F)F)ccc1NCCc1ccccn1	.	.	6	5.5	.
CCOc1ccccc1NC(=O)c1cccc(NC(=O)C(C)C)c1	6%	.	-9	1.0	-10
CCc1cccc(C)c1NC(=O)C1CCN(C(=O)c2ccc([N+](=O)[O-])cc2)CC1	8%	.	-5	.	12
COc1cccc(CNC(=O)C2CCN(S(=O)(=O)N3CCCCC3)CC2)c1	2%	9	-12	1.9	6
C=CCN1C(=O)C2(C(C(=O)OCC)=C(N)Oc3ccccc32)C2=C1CCCC2=O (centres undefined)	-2%	8	8	-5.4	5
Cc1cc(NC(=O)COC(=O)C2CCN(S(=O)(=O)c3c(Cl)cccc3Cl)CC2)no1	-5%	-30	-20	1.7	15
CC(C)CC1(C)NC(=O)N(CCN2C(=O)c3ccccc3C2=O)C1=O (centres undefined)	-2%	-21	-9	-3.4	1
O=C(NCC1CCCO1)c1ccc2c3n(nc2c1)-c1ccccc1CO3 (centres undefined)	-5%	.	-3	2.3	.
COCCCNC(=O)c1ccc(CS(=O)(=O)c2ccc(Br)cc2)o1	-8%	.	5	1.4	7
O=C1NC(=O)/C(=C/c2ccc(OS(=O)(=O)c3ccc(F)cc3F)cc2)N1	5%	.	-5	4.1	.
Cc1cccn2c(=O)c3cc(C(=O)N4CCOCC4)n(C)c3nc12	.	.	-8	-22	.
O=S(=O)(Nc1ncccn1)c1ccc(NS(=O)(=O)c2cc(Cl)ccc2Cl)cc1	-2%	.	-1	.	8
CC(C)Oc1ccc(C(=O)Nc2ccc(S(=O)(=O)N3CCN(C)CC3)cc2)cc1	.	.	5	-1.2	.
CCCOC(=O)c1ccc2c(c1)C(=O)N(c1ccccc1)C2=O	-9%	-57	1	.	5
Cc1ccc(N2C(=O)NC(=O)C(CCc3ccccn3)(Cc3cccc(Cl)c3Cl)C2=O)cc1 (centres undefined)	0%	-26	7	0.2	14
CCc1ccccc1NC(=O)CC1SCCNC1=O (centres undefined)	-10%	.	-18	-1.5	-9
CCCn1nc2cc(C(=O)NCc3ccc(C)cc3)ccc2c1OCC	-4%	-32	3	0.9	-1
Cc1nnc(NC(=O)c2cccc(S(=O)(=O)N3CCc4ccccc43)c2)s1	-10%	9	-2	-1.3	7
CN(NC(N)=O)c1ncc(C(F)(F)F)cc1Cl	-1%	-44	7	0.7	6
CCn1c(SCc2ccc(C(=O)Nc3cc(C)cc(C)c3)cc2)nnc1-c1ccncc1	1%	-16	1	0.5	-6
CC[C@H](C)/C=C(C)/C=C/C1=CC2=C(Cl)C(=O)[C@@](C)(OC(C)=O)C(=O)C2=CO1	17%	.	3	3.7	.

Reprinted from the part before: 2 entries, followed by the next part.
SMILES	Mtb growth	YopH inh	Mtb betalactam	RecA splice inh	Arbovirus anti	others
CCn1c(SCc2ccc(C(=O)Nc3cc(C)cc(C)c3)cc2)nnc1-c1ccncc1	1%	-16	1	0.5	-6
CC[C@H](C)/C=C(C)/C=C/C1=CC2=C(Cl)C(=O)[C@@](C)(OC(C)=O)C(=O)C2=CO1	17%	.	3	3.7	.
O=C(CSc1nnc(CNC(=O)c2ccccc2F)o1)Nc1ccc2c(c1)OCCO2	-2%	-12	94	2.6	6
Cc1cc(Nc2ccc(F)c(Cl)c2)n2nc(C)nc2n1	.	-12	-3	1.0	2	Arbovirus anti repeat=-5
CCCc1cc(N2CCCC(C(=O)NCC)C2)n2ncnc2n1 (centres undefined)	-6%	1	?	0.1	2
O=S(=O)(c1ccc(NC(=S)Nc2ccc3c(c2)OCO3)cc1)N1CCOCC1	4%	6	-6	1.3	-16
O=[N+]([O-])c1ccc(-c2csc(N/N=C/c3cccnc3)n2)cc1	-7%	.	5	22	-6
Cc1ccccc1-c1nc2c(s1)CCc1onc(-c3cccc([N+](=O)[O-])c3)c1-2	.	.	18	-3.8	.
O=C(Cc1cccc2ccccc12)N1CCN(c2ncccn2)CC1	3%	.	-3	-1.3	-1
CC1CCCCN1S(=O)(=O)c1cn(C)c(=O)n(C)c1=O (centres undefined)	-2%	.	9	0.9	6
CC(=O)c1ccc(OCC(O)CN2CCN(Cc3ccccc3)CC2)cc1 (centres undefined)	-4%	.	2	-1.1	-6	Arbovirus anti repeat=-1
C/C(=N/NC(=O)CNC(=O)c1cccnc1)c1ccco1	7%	.	-1	-1.1	.

2 compounds picked at random from those above, as already listed:
SMILES	Mtb growth	YopH inh	Mtb betalactam	RecA splice inh	Arbovirus anti	others
O=C(CSc1nnc(CNC(=O)c2ccccc2F)o1)Nc1ccc2c(c1)OCCO2	-2%	-12	94	2.6	6
O=S(=O)(c1ccc(NC(=S)Nc2ccc3c(c2)OCO3)cc1)N1CCOCC1	4%	6	-6	1.3	-16
